# Assay outcomes (PubChem BioAssay)
# VDR inhibitor: vitamin D3 receptor (human) inhibition | Potency, µM, for inactives: max response, negative = inhibition, hits mostly inhibitors | 0.93% of 400,000 active | VDR-SRC2-3 peptide fluorescence polarization, 2 h | AID 504847; active means well fitted inhibition curve with a large enough effect; inconclusive means small, poorly fitted or top-dose-only effect, or another doubt; inactive means no such curve, though single readings can be large or run the other way; further: series mostly up to about 120 µM
# Target sequence (P11473 whole entry, looked up): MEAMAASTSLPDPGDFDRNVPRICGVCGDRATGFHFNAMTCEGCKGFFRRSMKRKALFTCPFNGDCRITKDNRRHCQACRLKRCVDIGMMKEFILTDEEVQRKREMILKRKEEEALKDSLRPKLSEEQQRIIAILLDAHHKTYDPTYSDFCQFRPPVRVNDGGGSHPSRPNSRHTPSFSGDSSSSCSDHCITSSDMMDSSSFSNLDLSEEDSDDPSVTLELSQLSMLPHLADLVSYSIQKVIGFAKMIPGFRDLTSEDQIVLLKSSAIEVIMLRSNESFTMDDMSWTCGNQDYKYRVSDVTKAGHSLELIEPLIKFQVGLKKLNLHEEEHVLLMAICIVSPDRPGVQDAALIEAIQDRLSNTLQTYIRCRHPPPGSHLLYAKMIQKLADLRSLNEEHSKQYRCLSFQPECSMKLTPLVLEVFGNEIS
#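 Reagent solutions, kept cold and dark, are dispensed first; compounds are then pinned in at 23 nl, plates briefly spun, and incubated 2 h at ambient temperature. Inhibition of VDR–SRC2-3 peptide binding is read by fluorescence polarization.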
# An asterisk follows results filed as active; ? = inconclusive; & = joins results of further samples. On the % scale 0 is the no-effect control and ±100 the full control effect; potency means the concentration at half of the fitted maximal effect.
VDR inhibitor	SMILES
-2.9%	CCC(C(=O)NC(C)(C)C)N(Cc1ccco1)C(=O)Cn1nnc(-c2ccc(F)cc2)n1 (stereo unspecified)
-8.9%	CC(CCc1ccccc1)N1CCN(C)CC1 (stereo unspecified)
1.8%	CC(=O)CSc1nnc(CSc2ncccn2)n1C1CCCCC1
-10.5%	CCC(C)(C)NC(=O)CN(C(=O)c1ccc(N2CCCC2)nc1)c1ccc(F)cc1
6.3%	Cc1onc(-c2ccccc2Cl)c1C(=O)Nc1ccc(N2CCOCC2)cc1
8.8%	COc1ccc(OC)c(S(=O)(=O)NCC(c2ccc(N(C)C)cc2)N2CCOCC2)c1 (stereo unspecified)
13.3%	Cc1ccc(S(=O)(=O)N2CCCCC2)cc1NC(=O)c1ccc(Cl)nc1
0.3%	NC(=O)c1ccc(NC(=O)C2COc3ccccc3O2)cc1 (stereo unspecified)
13.2%	COc1ccc(-c2csc(C3=C(O)CN(Cc4ccc(S(N)(=O)=O)cc4)C3=N)n2)cc1OC
-3.8%	Cc1cccc(C)c1NC(=O)N1CC=CCC1
0.4%	O=S(=O)(NCc1cn2ccccc2n1)c1ccccc1F
4.9%	Cc1ccc2c(c1)N(C(=O)NCc1ccccc1)CCO2
-6.0%	O=C(NCC1CCCO1)c1nnc(Cc2ccc(F)cc2)o1 (stereo unspecified)
-24.7%	CC1=CC(C)(C)NC(=S)N1c1cccc2cc(S(=O)(=O)O)ccc12
5.6%	Cc1cccc(N2CCN(C(=O)c3ccc4nc(N5CCC(C)CC5)sc4c3)CC2)c1C
-8.9%&0.5%	Cc1cccc(OCC(=O)Nc2nnc(S(=O)(=O)N3CCCCCC3)s2)c1
-21.3%	CC1CCN(c2ccc(C(=O)O)cc2NS(=O)(=O)c2ccc(Br)cc2)CC1
-3.5%	CNC(=O)Nc1ccc2nc(C)oc2c1
-23.0%	Cc1ccc(C(=O)CC(C(=O)O)c2cn(CCC#N)c3ccccc23)cc1 (stereo unspecified)
-3.4%	CCc1cccc(NC(=O)CSC2=Nc3ccccc3N=C(c3ccc(F)cc3)C2)c1
-4.1%	Cc1[nH]n(-c2ccccc2)c(=O)c1/C=C1/C=c2ccccc2=N1
-18.3%	COc1ccc(OCCC(=O)OCC(=O)Nc2cccc(S(=O)(=O)N3CCOCC3)c2)cc1
-1.9%	CCOC(=O)N1CCN(C(=O)c2cn(CCOC)c(=O)c3c2c2ccccc2n3C)CC1
-20.1%	O=C(O)CC1(CC(=O)N2CCOCC2)CCCC1
0.7%	Cc1ccc(C)c(Cn2c(C(=O)O)c(CNCc3cccs3)c3ccccc32)c1
?	COc1ccccc1N/C=C/c1onc(C)c1[N+](=O)[O-]
-7.2%	CC1(C)CC(=O)C2=C(C1)N(N1CCOCC1)C(N)=C(C#N)C2c1cccnc1 (stereo unspecified)
2.7%	Cc1ccc(NC(=O)Cn2ccsc2=N)c([N+](=O)[O-])c1
-1.9%	Cn1c(=O)c2c(-c3ccccc3Br)n(C(C)(C)C)cc2n(C)c1=O
-5.3%	CC(C)n1cnc2c(N(C)c3ccccc3)nc(N(CCN(C)C)Cc3ccccc3)nc21
-0.5%	CCOC(=O)N1CCN(C(=S)Nc2ccccc2C)CC1
-11.1%	COc1cccc(CNC(=O)Cc2ccc(-c3ccccc3)cc2)c1
-10.9%	CC(C)N=C1NN=C(c2cccs2)CS1
-25.4%	Cc1ccccc1C(=O)NNC(=O)c1ccc2nc[nH]c2c1
-13.4%	O=C(NC1CCN(C(=O)c2cccs2)CC1)c1ccccc1
-4.5%	CCCC(CCC)=NNC(=O)c1ccccc1F
3.1%	CC(CN1C(C)CCCC1C)OC(=O)c1cccc(F)c1 (stereo unspecified)
27.3%	C/C(=N\O)C(=O)NCCN1CCCCC1
2.2%	CC1Cc2ccccc2N1C(=O)COc1nc2ccccc2nc1N1CCOCC1 (stereo unspecified)
6.5%	CSc1nncn1/N=C/c1ccc2c(c1)OCO2

# A second format for part of the listing above:
SMILES: CCCC(CCC)=NNC(=O)c1ccccc1F
  VDR inhibitor: -4.5%
SMILES: CC(CN1C(C)CCCC1C)OC(=O)c1cccc(F)c1 (stereo unspecified)
  VDR inhibitor: 3.1%
SMILES: C/C(=N\O)C(=O)NCCN1CCCCC1
  VDR inhibitor: 27.3%
SMILES: CC1Cc2ccccc2N1C(=O)COc1nc2ccccc2nc1N1CCOCC1 (stereo unspecified)
  VDR inhibitor: 2.2%

# Carrying on.
VDR inhibitor	SMILES
8.4%	COc1ccc2[nH]c(=O)c(CN(Cc3ccc4c(c3)OCO4)C(C)=O)cc2c1
-14.4%	COc1ccc2[nH]cc(CCNc3ncncc3-c3c(C)noc3C)c2c1
-11.3%	CC12CC(NC(=O)N1c1cccc(C(=O)Nc3ncn[nH]3)c1)c1ccccc1O2 (stereo unspecified)
-17.5%	CC(NC(=O)c1ccccc1)c1nnc(SCC(=O)Nc2nnc(C3CC3)s2)n1C (stereo unspecified)
-9.3%	CCCN(C(=O)CCl)C1=CCCCC1
24.2%	O=C(CCn1cnc2ccccc2c1=O)Nc1ccc(Cl)c(Cl)c1
-2.5%	CC(C)(C)NC(=O)C(c1ccc(F)cc1)N(Cc1ccco1)C(=O)c1csnn1 (stereo unspecified)
3.8%	COc1cccc(CN(C)CC(=O)Nc2cc3oc4ccccc4c3cc2OC)c1
7.5%	O=C(COc1ccc2c3c(c(=O)oc2c1)CCC3)NCC(O)c1ccccc1 (stereo unspecified)
20.4%	CCOc1ccccc1CNc1nc2nc(C)cc(C)n2n1
-16.4%	CC(C)Cn1c(N)c(C(=O)COC(=O)c2ccccc2Cl)c(=O)n(C)c1=O
-0.5%	Cc1cc(C)cc(N(C(=O)Cc2cccs2)C(C(=O)NC2CCCCC2)c2ccccn2)c1 (stereo unspecified)
7.0%	Cc1cc(C(=O)NN)n[nH]1
-10.8%	O=[N+]([O-])c1ccccc1/C=C/C=N/n1c(-c2ccccc2F)n[nH]c1=S
-9.5%	COc1ccc(CCC(=O)NCCOc2ccc(C)cc2)cc1
-0.1%	COC(=O)COc1ccc2c(=O)c(-c3ccccc3OC)coc2c1
6.6%	CC1CCN(S(=O)(=O)c2ccc(C(=O)OC(C)C(=O)N(C)C3CCCCC3)cc2)CC1 (stereo unspecified)
-14.9%	CC1CCCN(C(=O)C2CCN(c3nc(-c4ccccc4)nc4c3CCC4)CC2)C1 (stereo unspecified)
11.4%	CCCN1CCN(CCCNC(=O)CCN2C(=O)COc3ccccc32)CC1
3.1%	Cc1ccccc1S(=O)(=O)Cc1ccc(C(=O)NCCN2CCN(Cc3ccccc3)CC2)o1

# Individual results from the results shown.
# Under VDR inhibitor, COC(=O)COc1ccc2c(=O)c(-c3ccccc3OC)coc2c1 is entered as -0.1%
# Under VDR inhibitor, Cc1cc(C(=O)NN)n[nH]1 is entered as 7.0%

# Further compounds:
VDR inhibitor	SMILES
-22.2%	Clc1ccc(-c2nc(NCCCN3CCOCC3)c3ccccc3n2)cc1
-4.2%	Cc1ccc(C(=O)NCc2ccccn2)cc1Cl
5.9%	CCSc1nsc(NC(=O)Nc2cccc(OC)c2)n1
-6.9%	COc1ccc(C2CC(c3ccccc3)=NN2C(=O)c2ccc(Cl)c([N+](=O)[O-])c2)cc1 (stereo unspecified)
1.6%	COc1ccc(C2NCCO2)cc1OC (stereo unspecified)
-9.1%	CCC(C)[C@H]1CNC(=S)N1CCc1cccc2ccccc12 (stereo partly specified)
1.9%	O=C(N/N=C/c1ccc2c(c1)OCO2)c1cc2ccccc2o1
-16.6%	Cn1cc(/C=C/c2cc[n+](C)cc2)c2cc(Cl)ccc21
-3.1%&-6.5%	COc1cc(OC)c2c(-c3cccc(-c4ccc(N(C)C)cc4)c3)cc(=O)oc2c1
-6.9%	O=[N+]([O-])c1ccc(N2CCOCC2)cn1
5.2%	COC(=O)c1scc(-c2ccc(C)cc2)c1S(=O)(=O)Nc1cc(Cl)ccc1C
-9.7%	Cc1ccc2[nH]c(C)c(CCNC(=O)c3cc4cc([N+](=O)[O-])ccc4oc3=O)c2c1
-1.5%	Cn1nnnc1SCc1cc(=O)[nH]c2ccccc12
-5.5%	COc1cc(CNc2ccc3c(c2)OCCO3)ccc1OCC(N)=O
15.6%	O=c1c2ccccc2c(-c2ccc(F)cc2)nn1-c1ccc(C(F)(F)F)cc1
4.6%	CCC(C)Sc1cccc(-c2nc3cc(C)ccn3c2NC2CCCCC2)c1 (stereo unspecified)
-23.3%	O=C(CNC(=O)C1CCCCC1)NNC(=O)c1ccccc1Br
7.2%	COCCNC(=O)CSc1nc2c(n1-c1ccccc1)CCCC2
-4.8%	O=C(CN1C(=O)c2ccccc2C1=O)OCCOCCN=C1NS(=O)(=O)c2ccccc21
2.7%	CCOC(=O)CC(N)c1ccc(OC)cc1 (stereo unspecified)

# Exported with each value named: entries from further up.
structure: Clc1ccc(-c2nc(NCCCN3CCOCC3)c3ccccc3n2)cc1
  VDR inhibitor = -22.2%

structure: Cc1ccc(C(=O)NCc2ccccn2)cc1Cl
  VDR inhibitor = -4.2%

# The list continues.
VDR inhibitor	SMILES
?	O=C(Nc1cc(F)ccc1F)c1cnn2c(C(F)F)cc(-c3ccccc3)nc12
-7.7%	Cc1nn(-c2ccc(C(=O)NCC(c3ccco3)N3CCCC3)cc2)c(C)c1Cl (stereo unspecified)
2.3%	CC(=O)Nc1ccc(S(=O)(=O)N[C@@H](C)C(=O)OCC(=O)NC2CCCC2)cc1
?	CCCN1C(=O)C(=O)c2cc(Cl)ccc21
-5.2%	CC(C)(COC(=O)c1ccccc1)N1CC2CCC(C1)O2
0.3%	COc1cccc(OCCn2cc(/C=N/NC(=O)c3ccncc3)c3ccccc32)c1
-18.1%	O=CN1CCN(C(C(=O)NC2CCCCC2)c2ccc(Cl)cc2)CC1 (stereo unspecified)
-5.3%	Cc1cccc(NCc2nc3ccccc3n2Cc2ccccc2)c1
5.9%	CC(=O)Nc1ccc(Sc2ncccc2C(=O)Nc2ccc(OC(F)(F)F)cc2)cn1
-10.4%	COc1ccccc1N1CCN(Cc2cc3c(cc2[N+](=O)[O-])OCO3)CC1
-12.5%	CC(=O)N1CCC(N(CCN2CCOCC2)C(=S)Nc2cccc(C)c2)CC1
6.5%	O=C(O)Cn1nnc(-c2ccc(OCc3cccc(C(F)(F)F)c3)cc2)n1
-21.4%	Cc1ccc(NC(=S)c2nc3ccccc3[nH]2)cc1
-17.2%	O=C(Cc1ccc(-c2ccccc2)cc1)Nc1ccccn1
-11.8%	C[C@H](CO)N1C[C@H](C)[C@@H](CN(C)S(=O)(=O)c2cn(C)cn2)Oc2ccc(NC(=O)Cn3cnnn3)cc2C1=O
50.1µM*	CCOc1cccc(CNc2ccc(O)cc2)c1OCc1ccc(Cl)cc1Cl
12.3%	COC(=O)c1cc2c(ccn2-c2ccc(F)cc2)n1C(C)C
13.6%	O=c1[nH]c2cc(Cl)c([N+](=O)[O-])nc2[nH]1
7.7%	O=C1CC(C(=O)Nc2ccc(Cl)c(Cl)c2)S/C(=N\N=C\c2ccco2)N1 (stereo unspecified)
-6.7%	Cc1ccc(N2CN(Cc3cccnc3)CNC2=S)c(C)c1
-7.8%	O=C(COC(=O)CC1CC2CCC1C2)Nc1ccc(Cl)c(S(=O)(=O)N2CCOCC2)c1 (stereo unspecified)
9.6%	O=C(C1=COCCO1)N1CCN(S(=O)(=O)c2cccc(Br)c2)CC1
-5.1%	CCn1c(=O)c(C(=O)CN2CCOCC2)c(N)n(Cc2ccccc2)c1=O
3.2%	CCCCC1CCC(C(=O)N2CC(=O)Nc3ccc(Cl)cc3C2c2ccc(F)cc2)CC1 (stereo unspecified)
-8.1%	CCOC(=O)c1[nH]c(C)c(CCC(=O)OC)c1C
3.1%	Cc1nc2ccc(S(=O)(=O)N(C)CC(=O)NCCc3ccccc3)cc2s1
22.9%	CCOc1ccccc1NC(=O)Cn1c(=O)n(-c2ccc(OC)cc2OC)c(=O)c2c(C)c(C(=O)N(CC)CC)sc21
-17.6%	CC(=O)OC1CC(C)(C)N(OC(=O)c2ccc(N)cc2)C(C)(C)C1
-4.8%	Nc1ccc(C(=O)NN2C(=O)[C@H](Cl)C2c2ccc(Cl)cc2)cc1 (stereo partly specified)
5.9%	COc1ccc(-n2ncc3c2ncn2nc(-c4ccc(Cl)cc4Cl)nc32)cc1
-10.5%	COc1ccccc1C1CCN(C(=O)c2cccs2)CC1
8.2%	COc1cccc(N(CC(=O)NCCSc2ccccn2)S(C)(=O)=O)c1
-18.6%	COc1ccc(NC(=O)Cn2cnc3c(oc4nc5c(cc43)COC(C)(C)C5)c2=O)cc1
15.3%	C[N+](C)(C)CCCCCC(=O)/C=N/O
-11.1%	Cc1c(C(=O)O)sc(S(=O)(=O)N2CCN(C(=O)CCc3ccccc3)CC2)c1C(=O)O
-0.2%	[O][C@H]1[C@@H](O)[C@@H](CO)O[C@@H](O[C@@H]2[C@@H]3OC[C@H]2O[C@H](O[C@@H]2[C@@H](O)[C@H](C[C@@H]4[C@@H]5OC[C@H]4O[CH][C@@H]5O)O[C@H](CO)[C@@H]2OS(=O)(=O)O)[C@@H]3OS(=O)(=O)O)[C@@H]1O
-22.1%	COC(=O)C1=C(O)/C(=C\c2ccc(OCC(=O)Nc3ccccc3)cc2)N=C1C
3.1%	CN(Cc1ccccc1)C(=O)c1ccccc1NC(=O)C1CC1
-3.1%	CC(=O)c1ccc(N2Cc3ccccc3/C2=N\C(=O)Nc2ccccc2)cc1
-9.7%	O=C(CSc1nnc(-c2ccc(S(=O)(=O)N3CCCC3)cc2)n1CC1CCCO1)NC1CC1 (stereo unspecified)
8.2%	CC(=O)Oc1cccc(N2C(=O)c3ccc(C(=O)Nc4cccnc4)cc3C2=O)c1
2.4%	CC(C)(C)OC(=O)C[C@@H]1C/C=C\C[C@@H](CC(=O)N(CCO)Cc2ccccc2)C(=O)N[C@H](Cc2ccccc2)COC1=O
-4.4%	O=C(c1ccc2ccccc2n1)N1CCN(S(=O)(=O)c2ccc(Cl)cc2)CC1
3.6%	COc1ccc2nc(NC(=O)C(NS(=O)(=O)c3cccc4nsnc34)C(C)C)sc2c1 (stereo unspecified)

# An excerpt; rates above refer to the full screens.
